Menin MLL FP FL: displaces fluorescein MLL peptide from human menin. Fluorescence polarization, fluorescein-MLL peptide displacement from menin. FP activity change, % at 61.4 µM. 290,000 tested, under 10 active; inconclusive = falling polarisation curve, or a change in total fluorescence; inactive = total fluorescence flat and polarisation flat or rising; no compound was filed as active; the % refers to the polarisation; negative = inhibition;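 also: % of control where 0% means no effect; inhibitors lower the polarisation; unlabelled MLL peptide was the positive control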
ClpP mod: qHTS Assay for Activators of ClpP. ATP-dependent Clp protease proteolytic subunit (Bacillus subtilis (strain 168)), P80244. purified B. subtilis ClpP, FRET peptide cleavage, 20 min. Potency, µM (series often up to 57.5 µM), for the others: at the highest dose activity change, negative = active. hit rate 1.9% among 340,000. AID 651965, 2013; active = well fitted falling curve with a large enough effect; inconclusive = small, poorly fitted or top-dose-only effect; inactive = no such curve, though single readings can be large or run the other way; also: potency is read from the fitted curve at half-maximal effect; the source files actives as falling curves though it sought activators and does not explain the sign; nearly all actives have a fitted effect of over 65% in size; many hits overshoot -100%
Target sequence (P80244 whole entry, looked up): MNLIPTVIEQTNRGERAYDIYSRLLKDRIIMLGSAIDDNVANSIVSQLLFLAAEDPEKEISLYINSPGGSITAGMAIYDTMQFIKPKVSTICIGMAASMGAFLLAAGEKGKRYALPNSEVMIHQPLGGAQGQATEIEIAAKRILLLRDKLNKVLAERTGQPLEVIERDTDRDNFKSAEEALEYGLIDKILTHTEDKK
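FRET quenching reversal measured ClpP activation: 10 microg/mL B. subtilis ClpP at pH 8 with the FRET-FV decapeptide, read at 430 nm after 320 nm excitation. The 20-min minus 0-min signal was scaled between DMSO/no-enzyme wells and ADEP (5.8 microM final).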
gsp antag: antagonizes gsp, the McCune-Albright syndrome mutation | gsp-mutant cells, cAMP HTRF, 30 min; control for the full effect not named in the record | Potency, µM (top dose mostly 76.9 µM), inactives show at the top dose activity change, negative = inhibition, actives largely listed as inhibitors | hit rate 0.4% among 340,000; active = falling curve of any shape with a large fitted effect; inconclusive = falling curve, mostly with a smaller effect; inactive = flat or rising curve; cell line not stated here;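 also: intracellular cAMP measured with PDE inhibitor Ro 20-1724 present during compound exposure; potency is read from the fitted curve at half-maximal effect; % is scaled to controls: 0 for no effect and ±100 for the full control effect; nearly all actives have a fitted effect of over 65% in size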
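Cells, 2000/well, grown 16–24 h in DMEM 10% FBS with 0.5 mg/ml G418, then compounds plus […] (300 uM addition stock), 30 min at 37C. cAMP read by HTRF (cAMP-d2 and anti-cAMP antibody-K in lysis buffer) after 30 min RT.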
TRPML1 agonist: activates the human TRPML1 channel. Q9GZU1. TRPML1-expressing cells, Ca2+ dye fluorescence, FDSS; host cell line not named in the record; reference of the full effect not given here. activation, % (test concentration not listed). hit rate 0.12% among 410,000; in the data active = activation above about 50%; inconclusive = about 30% to 50%; inactive = below about 30%; also: 0% is about no effect; the text of the record puts the active cut at 80%
Target sequence (Q9GZU1 whole entry, looked up): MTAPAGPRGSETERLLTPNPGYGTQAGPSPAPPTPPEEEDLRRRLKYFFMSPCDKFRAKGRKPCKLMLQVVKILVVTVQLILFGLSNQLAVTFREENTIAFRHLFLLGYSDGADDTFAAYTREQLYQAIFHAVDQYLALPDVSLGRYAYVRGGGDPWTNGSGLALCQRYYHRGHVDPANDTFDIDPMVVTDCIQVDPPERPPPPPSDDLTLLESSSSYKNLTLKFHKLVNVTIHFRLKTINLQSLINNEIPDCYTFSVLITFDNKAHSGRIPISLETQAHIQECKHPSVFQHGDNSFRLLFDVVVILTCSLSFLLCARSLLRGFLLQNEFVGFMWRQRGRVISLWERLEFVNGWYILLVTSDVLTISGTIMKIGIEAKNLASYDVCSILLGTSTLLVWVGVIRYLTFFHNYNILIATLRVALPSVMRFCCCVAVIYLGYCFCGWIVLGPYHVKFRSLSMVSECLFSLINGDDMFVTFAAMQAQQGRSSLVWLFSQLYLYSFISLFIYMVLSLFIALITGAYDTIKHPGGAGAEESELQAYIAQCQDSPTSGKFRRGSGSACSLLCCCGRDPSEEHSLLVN
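In this qHTS format, compounds were pin-transferred onto Ca8-dye-loaded TRPML1-DL cells induced with Tet overnight, and intracellular Ca2+ fluorescence was recorded kinetically for 110 s after a 10 s baseline. A subsequent 4uM final 54-4 (EC80) addition followed by a second 110 s read served as the antagonist phase.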
TRPML1 inh: blocks the human TRPML1 channel | AID 624415 | TRPML1-inducible cells, Ca2+ dye fluorescence, FDSS; stronger effect = lower value; inhibition of EC80 agonist-evoked calcium signal | Q9GZU1 | hit rate 0.02% among 390,000 | activity change, negative = inhibition, % (no concentration beside the values); in the data active means activity change below about -50%; inconclusive means about -30% to -50%; inactive means above about -30%;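 also: stimulus is agonist 54-4 at its EC80 concentration; % is scaled to controls: 0 for no effect and ±100 for the full control effect; compound concentration not given in the record; the text of the record puts the active cut at -80%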
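Calcium fluorescence in TRPML1-DL cells induced overnight with Tet: a 110 s read after compound pin addition, then a 110 s antagonist read after challenge with 54-4 at 4 uM final (EC80).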
gsp agonist: gsp mutant agonism | gsp mutant cells, cAMP HTRF, 30 min; control for the full effect not named in the record | Potency, µM (top dose mostly 76.9 µM), for the others: top-dose activation (cAMP increase), usual class: activators | hit rate 0.13% among 340,000 | AID 624287; active = well fitted activation curve with a large enough effect; inconclusive = small, poorly fitted or top-dose-only effect, or another doubt; inactive = no such curve, though single readings can be large or run the other way; cell line not stated here;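 also: phosphodiesterase inhibitor Ro 20-1724 added with compounds to block cAMP breakdown; potency is read from the fitted curve at half-maximal effect; nearly all actives have a fitted effect of over 60% in size; about a fifth of the inactives were tested at one dose only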
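Cells stably selected in G418 were plated at 2000/well, grown 16-24 hr, then given compounds in DMSO with the PDE inhibitor […] (300 uM solution added) for 30 min at 37C; cAMP was read by HTRF.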
Active calls of the source: *; ? = inconclusive; / = no result given; & = joins results of further samples; [ ] = dose if it differs, or a comment. The list is partial. The share of hits here may be higher or lower than overall.

SMILES	Menin MLL FP FL	ClpP mod	gsp antag	TRPML1 agonist	TRPML1 inh	gsp agonist
O=C(C1CC(c2ccc(F)cc2)=NO1)N1CCC2(CC1)OCCO2 (configuration not stated)	2.5	-2.3%	0%	3.7	21	1%
CC(=O)OC1N=C(c2ccccc2)c2cc(Br)ccc2N(C)C1=O (configuration not stated)	1.2	1.4%	12%	1.6	16	2%[15.4 µM]
COC(=O)C1=C(c2ccc(OC(F)(F)F)cc2)C[C@@H]2CC[C@H]1N2C(=O)N1CCOCC1	/	1.0%	6%	-0.1	18	6%
COC(=O)C1=C(c2ccc3ccccc3c2)C[C@@H]2CC[C@H]1N2C(=O)NCc1ccco1	/	1.7%	-13%	1.4	10	-1%
COC(=O)C(C)NC(=S)N1CC2C[C@@H](C1)Cn1c2cccc1=O (some centres not stated)	0.4	-1.1%	-10%	1.4	?	?
CCCOc1ccccc1C1SCC(=O)Nc2c1c(=O)[nH]n2C(C)CCC (configuration not stated)	1.2	-7.0%	-1%	0.8	-6	19%
CSc1ncc(/C=C2/C(=O)NC(=O)N(C)C2=O)cn1	9.6	0.3%	-8%	-0.2	-9	-7%
COc1ccc(OC)c(NC(=O)N2C[C@H]3C[C@@H](C2)c2cccc(=O)n2C3)c1	-2.6	0.6%	-2%	/	/	/
O=c1[nH]c(=S)n(C2CCCCC2)c(O)c1/C=N/N1CCOCC1	12	0.2%	1%	0.3	-13	-6%
O=C(Cn1cc(C(=O)c2ccccc2F)c2ccccc21)NCc1ccco1	-0.4	-3.0%	35%[activator]	2.0	-5	4%
CC1Oc2cc3c(-c4c(O)cc(O)c5c(O)c6c(cc45)OC(C)C(C)C6=O)c(O)cc(O)c3c(O)c2C(=O)C1C (configuration not stated)	2.5	0.4%	-19%	/	/	/
CC(C)N1CC=C(c2c[nH]c3ccccc23)CC1	5.3	-14%	3%	1.3	-4	-10%
CN1CC(C(=O)c2ccc(Cl)cc2)C(c2ccc(Cl)cc2Cl)C1 (configuration not stated)	0.3	/	-3%	-0.1	7	11%
C/C(=N\Nc1ccccc1)c1c(O)n(C)c(=O)n(C)c1=O	4.3	-0.3%	3%	-0.2	8	-6%
Cc1cccc(CN2CCN(C(=O)Cc3ccccc3)CC2)c1	-3.5	/	4%	-0.6	35	-50%[inhibitor]
CN1C[C@H]2CON(C)[C@H]2C[C@H]1c1cccc(Br)c1	/	1.5%	6%	-0.5	-7	/
COc1ccc(-c2nn(CCC#N)cc2C(=O)Nc2ccc(C(C)=O)cc2)cc1	1.0	-0.3%	-33%	0.2	96	-14%
CCC(=NCCOc1ccc(Cl)cc1)c1c(O)n(C)c(=O)n(C)c1=O	2.3	1.2%	9%	0.1	-20	-4%[15.4 µM]
Cc1ccc(N2C(=O)NC(=O)C3(Cc4ccccc4N4CCN(c5ccccc5)CC43)C2=O)cc1 (configuration not stated)	?	0.0%	-7%	-0.6	1	-1%
C=CCn1nc(C(=O)N2CCOCC2)cc1-c1sc(NC(=O)c2ccccc2)nc1C	/	-19%	/	2.0	55	22µM*
Cn1c(O)c(C(=N)COc2ccccc2)c(=O)n(C)c1=O	3.6	0.5%	-13%	-0.7	0	30%
O=c1[nH]c(=O)n(C2CCCCC2)c(O)c1/C=C/C=Nc1ccccc1	?	/	4%	?	-15	24%
CC(C)(C)C1(CCO)C(=O)NC(=S)NC1=O	/	-9.8%	-4%	0.0	7	-7%
O=C1NC(=O)C(C2CCOC2=O)N1 (configuration not stated)	/	-0.3%	/	-0.3	8	3%
COc1cccc(/C=N/NC(=O)c2c(C)nc3ccc(Br)cn23)c1	0.8	-4.3%	-6%	-0.4	-14	?
CCOC(=O)N(c1ccccc1)P1(=S)OCC(C)O1 (configuration not stated)	9.6	-1.1%	-5%	1.5	-9	4%
COC(=O)c1ccccc1-n1c(C)nc2ccccc2c1=O	4.1	0.4%	11%	-0.4	5	-4%
c1cc(CCN2CCCC2)ccn1	0.0	-7.7%	11%	0.1	-21	2%
O=C(COc1ccccc1F)N1CCN(CCN2C(=O)c3cccc4cccc(c34)C2=O)CC1	-0.1	-1.3%	-5%	-0.1	-5	-2%[15.4 µM]
C=Cn1ccnc1P(=S)(c1ccn(C)c1)c1nccn1C=C	0.9	-2.1%	1%	0.6	11	-10%
O=C(c1ccco1)C12CN3CN(CN(C3)C1)C2	0.7	1.7%	12%	-0.3	-23	-6%
COc1cc2[nH]c(=S)n(-c3ccccc3)c(=O)c2cc1OC	-4.6	0.9%	-18%	0.7	3	35%
CCOC(=O)C1=C(N)OC2=C(C(=O)CCC2)C12C(=O)N(C)c1ccccc12 (configuration not stated)	2.8	-1.3%	-12%	-0.2	-3	-3%[15.4 µM]
COc1ccc(-c2nc(CN3C(=O)CN=C(c4ccccc4)c4ccccc43)c(C)o2)cc1OC	/	-1.7%	/	0.4	15	/
CC[N+]1(C)CCCC(OC(=O)C(O)(c2ccccc2)c2ccccc2)C1 (configuration not stated)	-1.0&-1.6	-1.1%	14%	1.7	-4	/
CC1CCCCN1Cc1c[nH]c2ccccc12 (configuration not stated)	9.6	-12%	-2%	0.7	14	-31%
C[C@H](CO)N1C[C@H](C)[C@H](CN(C)C(=O)Oc2ccccc2)OCc2cnnn2CCCC1=O	/	1.7%	/	-0.8	31	11%
COCCOc1ccc(C(F)(F)F)cc1NC(=O)CN1C(=O)NC2(CCCc3ccccc32)C1=O (configuration not stated)	/	/	-12%	0.9	16	-1%
c1ccc(-c2ccc(CN3Cc4ccccc4-n4nncc4C3)cc2)cc1	/	-0.3%	/	0.1	1	-72%[inhibitor]
C[C@]12CC[C@@H](O)CC1=CCC1C2CC[C@@]2(C)C1C[C@@H](F)[C@H]2O (some centres not stated)	/	/	10%	0.3	33	-4%
CCC1(CC)C(=O)NC(=O)N(CCc2ccccn2)C1=O	/	/	3%	0.0	-25	-11%
Cc1ccc(-c2nn(CCC#N)cc2C(=O)O)cc1C	0.7	/	7%	1.4	-18	-5%
Cc1nc2ccccc2c(=O)n1-c1ccccc1[N+](=O)[O-]	-3.0	-3.4%	7%	0.7	8	-9%
CCC1(CC)C(=O)NC(=NCCc2c[nH]c3ccccc23)NC1=O	1.9	-3.0%	5%	-0.4	-9	2%
O=C(c1ccc2c(c1)N(Cc1ccccc1)CCS2)N1CCC2(CC1)OCCO2	/	4.0%	-9%	-1.1	2	36%
Cc1ccc(-c2cc(-c3ccccc3)cc(-c3ccccc3)[n+]2-c2ccccc2C(=O)O)cc1	/	?	-1%	0.4	11	/
COCCOC(=O)C1=C(N)Oc2c(c(=O)oc3ccccc23)[C@@]12C(=O)Nc1ccccc12	2.2	2.0%	-14%	-0.9	-6	-21%
CC(C)c1ccc(-n2c(O)c(/C=N/NC(=O)c3ccncc3)c(=O)[nH]c2=O)cc1	8.6	-15%	3%	0.6	16	8%
CN(C/N=C(\N)N[N+](=O)[O-])S(=O)(=O)c1ccccc1	4.8	/	9%	5.5	0	-2%[15.4 µM]
Cc1ccccc1-n1c(C)nc2ccsc2c1=O	/	/	11%	-0.2	4	-1%[15.4 µM]
Next part.
SMILES	Menin MLL FP FL	ClpP mod	gsp antag	TRPML1 agonist	TRPML1 inh	gsp agonist
C[C@H]1CN([C@@H](C)CO)C(=O)c2cccc(NC(=O)c3ccc(-c4nccs4)cc3)c2O[C@@H]1CN(C)C(=O)Nc1cccc2ccccc12	/	-17%	-16%	-0.7	0	-9%
COc1cc(OC)cc(C(=O)N2CCC(N3CCN(c4ccccc4)CC3)CC2)c1	0.9	-0.7%	4%	0.1	1	-42%[inhibitor]
COC(=O)C1=C(c2ccc3ccccc3c2)C[C@@H]2CC[C@H]1N2C(=O)NC1Cc2ccccc2C1	/	-4.7%	-17%	2.0	20	-18%
CCc1cc(-c2nnn(CCC3COCCO3)c2CC)cc(CC)c1-c1cn(Cc2ccc3ccccc3c2)nn1 (configuration not stated)	/	-6.0%	/	0.1	-9	-111%[inhibitor]
OC(Cn1c2ccccc2c2ccccc21)C[n+]1cccc2ccccc21 (configuration not stated)	1.0	0.8%	4%	-0.5	4	-42%
CC(C(=O)c1c[nH]c2ccccc12)N1CCc2ccccc2C1 (configuration not stated)	6.5	-1.2%	7%	2.6	3	-20%
C=CCc1c(C)[nH]c(=S)c(C#N)c1C	4.0	3.3%	6%	1.3	9	?
COc1cccc(/C=C/c2nc(S(=O)(=O)c3ccccc3)c(N3CCC(C(N)=O)CC3)o2)c1	/	3.7%	/	-1.0	-14	-71%[inhibitor]
CCOC(=O)[C@]1(C#N)[C@@H]2C=CC(C(N)=O)=CN2[C@@H](C(N)=O)[C@@H]1c1ccc(F)cc1	?	-3.7%	3%	1.5	-11	-11%
COc1ccc(-c2cc(=NCC(=O)O)c3ccccc3o2)cc1	5.2	4.5%	4%	0.1	-8	10%
CC(=O)OC1(c2ccc(C)cc2)CN2CCC1c1ccccc12 (configuration not stated)	-0.1	?	-6%	-0.3	9	-14%
C=CCN1C(=O)NC(=O)C(Cc2ccc(OC)c(OC)c2)C1=O (configuration not stated)	1.5	-0.4%	-4%	-0.5	-5	-3%
CC(=NCCO)c1c(O)n(C)c(=O)n(C)c1=O	0.6	0.6%	2%	0.3	0	-2%
CCCc1nc2ccc(Br)cc2c(=O)n1-c1ccc([N+](=O)[O-])c(C(F)(F)F)c1	4.9	-0.6%	?	2.3	47	3%
CCc1cccc(C)c1NC(=S)N1CC2CC(C1)c1cccc(=O)n1C2 (configuration not stated)	0.2	-2.5%	4%	0.3	-11	7%
O=C(O)CCn1cc(C=C2C(=O)NC(=S)NC2=O)c(-c2cc3ccccc3oc2=O)n1	?	3.8%	4%	1.1	-8	-12%
